Screening data (PubChem)
A1 apoptosis 2: A1 inhibitors via caspase activation, primary screen, cell-based, luminescence, HTS, two replicates. caspase activation, % (test concentration not listed). 24,000 tested, under 10 active. MEF A1-2A-BIM cells, caspase-Glo luminescence, 3 h; percent of clofoctol response, DMSO zero; in the data active = caspase activation above about 5.9%;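 note: wells of about 30 µL received 50 nL stock; the first replicate is given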
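system = A1-2A-BIM-expressing MEF cells | quantity = 2500 MEF cells/well | dosing = 50 nL compound per well, pinned | schedule = overnight cell settling, then 3 h compound exposure, 37 °C | signal = luminescence from DEVD-luciferin Caspase-Glo reagent, 1:1 in 50 mM HEPES, 1 h RT | read-out = Caspase-3/7 activation, seen as rise in luminescence signal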
Starred values were filed as active, the others as inactive. Not all compounds are listed. The share of hits here may be higher or lower than overall.

SMILES	A1 apoptosis 2
C[C@@H]1CN([C@H](C)CO)C(=O)Cc2cc(NS(=O)(=O)c3ccc(Cl)cc3)ccc2O[C@@H]1CN(C)S(=O)(=O)c1ccccc1	-0.6
COc1ccc(NC(=O)Nc2ccc3c(c2)C(=O)N([C@@H](C)CO)C[C@H](C)[C@H](CN(C)Cc2ccc(C(F)(F)F)cc2)OCCCC[C@@H](C)O3)cc1	-1.8
CNC[C@H]1Oc2ccc(NC(=O)CCC(F)(F)F)cc2CC(=O)N([C@@H](C)CO)C[C@@H]1C	1.0
C[C@H]1CN([C@@H](C)CO)C(=O)c2cc(NC(=O)CCCCCC(=O)Nc3ccccc3N)ccc2O[C@@H]1CN(C)S(=O)(=O)c1cn(C)cn1	0.3
C[C@@H]1CN([C@H](C)CO)C(=O)c2cc(N(C)C)ccc2O[C@@H](C)CCCCO[C@@H]1CN(C)C(=O)C1CCCCC1	-0.7
COc1ccc(CN(C)C[C@@H]2OCCCC[C@@H](C)Oc3ccc(NC(=O)CCCN(C)C)cc3C(=O)N([C@@H](C)CO)C[C@H]2C)cc1	0.7
C[C@H]1CN([C@@H](C)CO)C(=O)Cc2cc(NC(=O)CCN3CCOCC3)ccc2O[C@@H]1CN(C)C	-1.0
C[C@H]1CN([C@@H](C)CO)C(=O)Cc2cc(NC(=O)Cc3cn(C)c4ccccc34)ccc2O[C@H]1CN(C)C(=O)Nc1ccc2c(c1)OCO2	0.4
C[C@@H]1CCCCO[C@H](CN(C)C(=O)Nc2ccccc2)[C@@H](C)CN([C@H](C)CO)C(=O)c2cc(NS(C)(=O)=O)ccc2O1	-0.8
CC(C)NC(=O)Nc1ccc2c(c1)C(=O)N([C@@H](C)CO)C[C@@H](C)[C@@H](CN(C)S(=O)(=O)c1cccs1)O2	-1.1
C[C@@H]1CN([C@H](C)CO)C(=O)c2cccc(NC(=O)C3CCOCC3)c2O[C@@H]1CN(C)S(=O)(=O)c1ccc(F)cc1	-0.6
C[C@H](CO)N1C[C@H](C)[C@@H](CN(C)C(=O)Nc2cccc3ccccc23)OCCCC[C@H](C)Oc2ccc(N(C)C)cc2C1=O	0.0
C[C@H](CO)N1C[C@H](C)[C@H](CN(C)S(C)(=O)=O)OCc2cnnn2CCCC1=O	0.4
C[C@H](CO)N1C[C@H](C)[C@H](CN(C)Cc2ccncc2)Oc2ccc(NC(=O)Cn3cnnn3)cc2C1=O	-0.5
C[C@@H]1CN([C@@H](C)CO)C(=O)c2cccc(NC(=O)Nc3ccc(C(F)(F)F)cc3)c2O[C@@H]1CN(C)Cc1ccc(Cl)c(Cl)c1	-0.1
C[C@H]1CCCCO[C@@H](CN(C)C)[C@@H](C)CN([C@@H](C)CO)C(=O)c2cc(NC(=O)C3CCCCC3)ccc2O1	0.2
C[C@H](CO)N1C[C@H](C)[C@@H](CN(C)Cc2ccc(C(F)(F)F)cc2)Oc2c(NC(=O)c3cnccn3)cccc2C1=O	-1.0
Cc1noc(C)c1NC(=O)N(C)C[C@H]1Oc2ccc(NC(=O)c3ccncc3)cc2C(=O)N([C@@H](C)CO)C[C@H]1C	-0.1
C[C@@H]1CN([C@H](C)CO)C(=O)c2cccc(NC(=O)Nc3cccc4ccccc34)c2O[C@@H]1CN(C)Cc1ccncc1	0.3
C[C@@H]1CN([C@H](C)CO)C(=O)c2cc(NC(=O)NC3CCCCC3)ccc2O[C@@H](C)CCCCO[C@H]1CN(C)S(=O)(=O)c1ccc(F)cc1	-0.2
COc1ccc(S(=O)(=O)N(C)C[C@@H]2OCCCC[C@H](C)Oc3ccc(NC(=O)Cc4ccccc4)cc3C(=O)N([C@@H](C)CO)C[C@H]2C)cc1	0.3
C[C@H]1CCCCO[C@H](CN(C)S(=O)(=O)c2cn(C)cn2)[C@@H](C)CN([C@@H](C)CO)C(=O)c2cc(NC(=O)c3ccccc3)ccc2O1	-0.9
COC(=O)CCCCCCC(=O)N/N=C/c1ccc2ccccc2n1	-2.0
C[C@@H]1CN([C@@H](C)CO)C(=O)c2cc(NC(=O)c3ccncc3)ccc2O[C@@H]1CN(C)Cc1ccc2c(c1)OCO2	1.2
C[C@@H]1CN([C@H](C)CO)C(=O)CCCn2nncc2CO[C@H]1CN(C)C(=O)Nc1ccc2c(c1)OCCO2	0.7

The final 2 compounds of the section above come first, to join the parts.
SMILES	A1 apoptosis 2
C[C@@H]1CN([C@@H](C)CO)C(=O)c2cc(NC(=O)c3ccncc3)ccc2O[C@@H]1CN(C)Cc1ccc2c(c1)OCO2	1.2
C[C@@H]1CN([C@H](C)CO)C(=O)CCCn2nncc2CO[C@H]1CN(C)C(=O)Nc1ccc2c(c1)OCCO2	0.7
C[C@@H]1CN([C@@H](C)CO)C(=O)Cc2cc(NC(=O)C3CC3)ccc2O[C@@H]1CN(C)C(=O)Nc1ccccc1	0.1
Cc1noc(C)c1NC(=O)Nc1ccc2c(c1)CC(=O)N([C@@H](C)CO)C[C@H](C)[C@H](CN(C)Cc1ccc(Cl)c(Cl)c1)O2	0.4
C[C@H]1CN([C@@H](C)CO)C(=O)Cc2cc(NC(=O)NC3CCCCC3)ccc2O[C@H]1CN(C)S(=O)(=O)c1cn(C)cn1	1.1
C[C@@H]1CN([C@H](C)CO)C(=O)c2cc(NS(=O)(=O)c3ccc(F)cc3)ccc2O[C@H]1CN(C)C	1.1
Cc1noc(C)c1S(=O)(=O)Nc1ccc2c(c1)C(=O)N([C@@H](C)CO)C[C@H](C)[C@H](CN(C)C(=O)Nc1ccccc1)OCCCC[C@H](C)O2	-0.7
Cc1noc(C)c1NC(=O)N(C)C[C@H]1Oc2c(NC(=O)c3nc4ccccc4s3)cccc2C(=O)N([C@@H](C)CO)C[C@H]1C	-0.4
C[C@@H]1CN([C@@H](C)CO)C(=O)CCCn2nncc2CO[C@@H]1CN(C)C(=O)Nc1ccc(F)cc1	-0.8
O=C(C1=C[C@H](c2ccc(Br)cc2)C[C@H](OCc2ccc(CO)cc2)O1)N1CCN(Cc2ccc3c(c2)OCO3)CC1	0.1
C[C@H](CO)N1C[C@H](C)[C@@H](CN(C)S(=O)(=O)c2ccccc2)Oc2ccc(NC(=O)CCN3CCOCC3)cc2C1=O	1.5
COc1ccc(Br)cc1/C=N/NC(=O)CCCCCCC(=O)Nc1ccccc1O	1.4
C[C@@H]1CN([C@H](C)CO)C(=O)c2cc(NC(=O)CCC(F)(F)F)ccc2O[C@@H](C)CCCCO[C@@H]1CN(C)S(=O)(=O)c1cn(C)cn1	-1.1
C[C@@H]1CCCCO[C@@H](CN(C)S(=O)(=O)c2ccc(F)cc2)[C@H](C)CN([C@@H](C)CO)C(=O)c2cc(NC(=O)Nc3ccc(C(F)(F)F)cc3)ccc2O1	0.3
Cc1noc(C)c1S(=O)(=O)Nc1ccc2c(c1)CC(=O)N([C@@H](C)CO)C[C@@H](C)[C@@H](CN(C)Cc1ccc(Oc3ccccc3)cc1)O2	0.6
Cc1ccc(S(=O)(=O)N(C)C[C@@H]2Oc3ccc(NS(C)(=O)=O)cc3C(=O)N([C@@H](C)CO)C[C@H]2C)cc1	-0.2
CC(C)NC(=O)Nc1ccc2c(c1)C(=O)N([C@H](C)CO)C[C@@H](C)[C@@H](CN(C)C(=O)CCCN(C)C)OCCCC[C@@H](C)O2	0.4
CC(C)NC(=O)N(C)C[C@@H]1Oc2ccc(NS(=O)(=O)c3ccc(Cl)cc3)cc2CC(=O)N([C@H](C)CO)C[C@H]1C	-0.5
C[C@@H]1CN([C@H](C)CO)C(=O)Cc2cc(NC(=O)Cn3cnnn3)ccc2O[C@@H]1CN(C)S(=O)(=O)c1ccc(Cl)cc1	-0.1
Cc1ccc(S(=O)(=O)N(C)C[C@@H]2Oc3ccc(NS(=O)(=O)c4ccccc4)cc3C(=O)N([C@H](C)CO)C[C@H]2C)cc1	-1.9
C[C@@H]1CCCCO[C@H](CN(C)CC2CC2)[C@H](C)CN([C@@H](C)CO)C(=O)c2cc(N(C)C)ccc2O1	-0.3
Cc1ccc(S(=O)(=O)N(C)C[C@H]2Oc3ccc(NS(=O)(=O)c4c(C)noc4C)cc3C(=O)N([C@H](C)CO)C[C@H]2C)cc1	0.3
C[C@@H]1CN([C@@H](C)CO)C(=O)Cc2cc(NS(=O)(=O)c3ccc(Cl)cc3)ccc2O[C@H]1CN(C)S(=O)(=O)c1cn(C)cn1	1.0
C[C@@H]1CN([C@@H](C)CO)C(=O)c2cc(NC(=O)Cc3cn(C)c4ccccc34)ccc2O[C@H]1CN(C)S(C)(=O)=O	2.6
COc1ccc(S(=O)(=O)N(C)C[C@H]2Oc3ccc(NC(=O)CCC(F)(F)F)cc3CC(=O)N([C@H](C)CO)C[C@H]2C)cc1	-0.1
C[C@H](CO)N1C[C@H](C)[C@H](CN(C)C(=O)CCC(F)(F)F)OCCCC[C@H](C)Oc2ccc(NC(=O)NC3CCCCC3)cc2C1=O	1.1
COc1ccc(NC(=O)N(C)C[C@H]2Oc3c(NC(=O)Nc4ccc(C(F)(F)F)cc4)cccc3C(=O)N([C@H](C)CO)C[C@H]2C)cc1	-0.9

An excerpt from above in order of length of the SMILES, lowest first:
SMILES	A1 apoptosis 2
C[C@@H]1CN([C@H](C)CO)C(=O)c2cc(NS(=O)(=O)c3ccc(F)cc3)ccc2O[C@H]1CN(C)C	1.1
C[C@@H]1CCCCO[C@H](CN(C)CC2CC2)[C@H](C)CN([C@@H](C)CO)C(=O)c2cc(N(C)C)ccc2O1	-0.3
C[C@@H]1CN([C@@H](C)CO)C(=O)c2cc(NC(=O)Cc3cn(C)c4ccccc34)ccc2O[C@H]1CN(C)S(C)(=O)=O	2.6
C[C@H]1CN([C@@H](C)CO)C(=O)Cc2cc(NC(=O)NC3CCCCC3)ccc2O[C@H]1CN(C)S(=O)(=O)c1cn(C)cn1	1.1
Cc1ccc(S(=O)(=O)N(C)C[C@H]2Oc3ccc(NS(=O)(=O)c4c(C)noc4C)cc3C(=O)N([C@H](C)CO)C[C@H]2C)cc1	0.3
COc1ccc(NC(=O)N(C)C[C@H]2Oc3c(NC(=O)Nc4ccc(C(F)(F)F)cc4)cccc3C(=O)N([C@H](C)CO)C[C@H]2C)cc1	-0.9

Other structures follow.
SMILES	A1 apoptosis 2
CNC[C@H]1OCCCC[C@@H](C)Oc2ccc(NC(=O)CCC(F)(F)F)cc2C(=O)N([C@H](C)CO)C[C@H]1C	-0.4
C[C@@H]1CN([C@H](C)CO)C(=O)Cc2cc(NC(=O)CCC(F)(F)F)ccc2O[C@@H]1CN(C)Cc1ccc(C(=O)Nc2ccccc2N)cc1	-0.4
O=C(N/N=C/c1ccc2ccccc2c1)c1ccccn1	-9.3
C[C@H](CO)N1C[C@H](C)[C@@H](CN(C)C(=O)Nc2ccc3c(c2)OCO3)OCCCC[C@H](C)Oc2ccc(NS(=O)(=O)c3ccc(F)cc3)cc2C1=O	0.0
Cc1noc(C)c1NC(=O)Nc1ccc2c(c1)C(=O)N([C@H](C)CO)C[C@@H](C)[C@@H](CN(C)S(=O)(=O)c1ccccc1)OCCCC[C@@H](C)O2	-0.8
COC(=O)N(C)C[C@H]1OCc2cnnn2CCCC(=O)N([C@H](C)CO)C[C@@H]1C	-0.5
C[C@@H]1CN([C@H](C)CO)C(=O)Cc2cc(NC(=O)Cc3cn(C)c4ccccc34)ccc2O[C@@H]1CN(C)Cc1ccc(C(=O)Nc2ccccc2N)cc1	1.0
C[C@H](CO)N1C[C@H](C)[C@H](CN(C)C(=O)Nc2ccccc2)OCCCC[C@H](C)Oc2ccc(NS(=O)(=O)c3cn(C)cn3)cc2C1=O	-0.7
COc1ccc(NC(=O)N(C)C[C@H]2Oc3ccc(NC(=O)Cc4ccccc4)cc3CC(=O)N([C@@H](C)CO)C[C@@H]2C)cc1	-1.0
C[C@H]1CN([C@@H](C)CO)C(=O)Cc2cc(NC(=O)Nc3ccc(C(F)(F)F)cc3)ccc2O[C@H]1CN(C)Cc1ccc(Cl)c(Cl)c1	1.7
COc1ccc(S(=O)(=O)N(C)C[C@@H]2Oc3ncc(C#Cc4ccc(OC)c(OC)c4)cc3C(=O)N([C@H](C)CO)C[C@@H]2C)cc1	-1.4
Cc1ccc(S(=O)(=O)N(C)C[C@@H]2Oc3ccc(NC(=O)Nc4ccc5c(c4)OCO5)cc3C(=O)N([C@H](C)CO)C[C@@H]2C)cc1	0.0
COc1ccc(S(=O)(=O)Nc2ccc3c(c2)C(=O)N([C@H](C)CO)C[C@H](C)[C@H](CN(C)C(=O)Nc2ccc4c(c2)OCO4)OCCCC[C@H](C)O3)cc1	0.9
COc1ccc(NC(=O)N(C)C[C@@H]2Oc3ccc(NC(=O)Nc4ccccc4)cc3CC(=O)N([C@@H](C)CO)C[C@@H]2C)cc1	0.2
C[C@@H]1CN([C@H](C)CO)C(=O)c2cc(NC(=O)NC3CCCCC3)ccc2O[C@H]1CN(C)C(=O)Nc1cccc2ccccc12	-0.1
COc1ccc(NC(=O)N(C)C[C@@H]2Oc3ccc(NC(=O)CCN4CCOCC4)cc3CC(=O)N([C@H](C)CO)C[C@@H]2C)cc1	-0.4
C[C@@H]1CN([C@H](C)CO)C(=O)CCCn2cc(nn2)CO[C@@H]1CN(C)Cc1ccc2c(c1)OCO2	-0.3
C[C@@H]1CN([C@@H](C)CO)C(=O)Cc2cc(NS(=O)(=O)c3ccc(Cl)cc3)ccc2O[C@@H]1CN(C)C(=O)Nc1ccc(F)cc1	-0.2
CC(C)NC(=O)Nc1cccc2c1O[C@@H](CN(C)Cc1ccc(-c3ccccc3)cc1)[C@@H](C)CN([C@H](C)CO)C2=O	0.5
C[C@H]1CCCCO[C@@H](CN(C)C)[C@@H](C)CN([C@@H](C)CO)C(=O)c2cc(N(C)C)ccc2O1	-0.1
C[C@@H]1CN([C@@H](C)CO)C(=O)c2cc(N(C)C)ccc2O[C@@H](C)CCCCO[C@@H]1CN(C)C(=O)Nc1ccccc1	-0.5
